High-throughput results: PubChem BioAssay, ICCB-Longwood Screening Facility, Harvard Medical School
MgrA-DNA mod: modulators of Staphylococcus aureus MgrA DNA binding; inhibition, %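 (about 10 µg/mL by stock and volumes)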; fluorescence polarization; AID 602314; actives 0.13% (n = 84,000);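 active = above 50% in either of two replicates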;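 note: 0% = protein plus DNA without compound and 100% = DNA alone without protein; higher means less MgrA bound to DNA so lower polarization; one replicate is shown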
Sa helicase inh: S. aureus DNA helicase inhibition. purified S. aureus helicase, fluorescence unwinding assay; about half of the hits fall short of the stated cut. inhibition, %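 (tested at about 80 µM)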. actives 0.05% (n = 120,000). AID 485395;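 active = both duplicates at 50% or more, or one of them with a favoured structure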;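 note: 0% = mean of negative control wells and 100% = mean of positive control wells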
An asterisk follows results filed as active; / = not tested or not shown.

SMILES	MgrA-DNA mod	Sa helicase inh
CCOC(=O)C1=C(CN2CCOCC2)NC(=O)NC1c1cccs1 (stereo not drawn)	/	19
Oc1ccc(Oc2ncc(Cl)cc2Cl)cc1	1.0	9
Cc1ccc(C(=O)Nc2ccc3c(c2)CS(=O)(=O)C3)cc1	-3.6	/
O=c1[nH]c2ccc(N=Cc3ccccc3C(F)(F)F)cc2[nH]1	-4.1	9
Cc1occc1-c1nnc(SCC(=O)c2c[nH]c3ccccc23)n1-c1ccccc1	/	-13
COc1ccc(C2C=C(c3ccccc3)Nc3ncnn32)cc1 (stereo not drawn)	0.2	12
Cc1ccc(S(=O)(=O)NC(=O)N2CCC(Nc3nccc(C(F)(F)F)n3)CC2)cc1	-2.1	/
CC12C(=O)C3C4CC5C3C(=O)C1C5C42 (stereo not drawn)	/	8
CCN(CC)c1nc(N2CCOCC2)nc(N2CCOCC2)n1	1.8	3
O=C(Nc1nc2nc(-c3ccccc3)cc(=O)n2[nH]1)c1cccs1	/	-8
Oc1ccc(-c2nc3ccccc3s2)cc1	/	11
COc1ccc(CCNC(=O)c2cc(Sc3ccc(F)cc3)nc3ccccc23)cc1OC	-0.6	10
O=C(CSc1nnc(COc2ccccc2)o1)N1CCc2ccccc21	/	-3
COc1ccc(Cc2nnc(SCC(=O)C(C)(C)C)n2-c2ccc(F)cc2)cc1OC	0.2	/
Cc1noc(C)c1COC(=O)/C=C/c1ccc2c(c1)OCO2	/	0
CC(=O)NCc1nc2ccccc2[nH]1	/	0
CCOC(=O)c1cc(C(=O)CSc2ccc(C(F)(F)F)cn2)on1	0.4	/
CN1CCC(=NNC(=O)c2cccc(S(=O)(=O)Nc3cc(Cl)ccc3Cl)c2)CC1	/	-1
O=C(SCc1ccco1)c1c(Cl)nc2ccccn12	0.7	6
Cc1ccc(C)n1-c1nnc(N2CCC(C(=O)NC3CCCCC3)CC2)s1	/	29
N#CCCNc1nncs1	-2.3	8
O=C(Cc1n[nH]c(=O)c2ccccc12)Nc1ccccc1C(=O)NC1CCCC1	/	7
COc1ccc(CCN2C(=O)CSC2c2ccc([N+](=O)[O-])cc2)cc1OC (stereo not drawn)	0.5	/
CCOC(=O)C1=C(N)C(=O)N(CCCN2CCOCC2)C1	-2.2	1
NS(=O)(=O)c1cccc(C(F)(F)F)c1	0.8	/
COC(=O)C1(C)NC(c2ccccc2C)C2C(=O)N(C)C(=O)C21 (stereo not drawn)	-0.9	8
Cc1ccccc1NC(=S)NCc1ccco1	-0.3	/
O=S(=O)(c1ccc2oc3ccc(S(=O)(=O)N4CCCCCC4)cc3c2c1)N1CCCCCC1	-0.2	8
O=C(O)CSCC(=O)Nc1ccccc1Oc1ccccc1	-3.0	/
CCN1CCN(S(=O)(=O)c2ccc(Cl)c(C(=O)NCCc3ccc4c(c3)OCCO4)c2)CC1	/	11
O=C(Cc1n[nH]c(=O)c2ccccc12)N/N=C/c1ccc(-c2ccc(Br)cc2)o1	/	-26
CCN1CCCC1CNCC(=O)Nc1ccccc1C(=O)NCCc1ccc(OC)cc1 (stereo not drawn)	/	7
Cc1ccccc1Cn1c(=O)n(Cc2ccco2)c(=O)c2ccc(C(=O)NC3CCCC3)cc21	0.3	16
O=C(c1ccccc1)c1ccc(N2CCCC2)cc1	1.3	-1
O=C(O)c1ccccc1Cc1nc2cc(C(F)(F)F)ccc2c(=O)[nH]1	4.3	0
CCOCCCN=C1NC(C)(C)CS1	/	-19
COC(=O)C1=NNC2C(=O)N(c3cc(C)cc(C)c3)C(=O)C12 (stereo not drawn)	-1.9	5
Cc1cc(Oc2ccccc2)nc(N)n1	/	18
Cc1noc(C)c1-c1nc(CSc2ccc(Cl)cc2)no1	3.8	/
Cc1ccccc1NC(=O)COc1ccccc1C	/	-3
CN(C)/C=N/c1nnc(SCc2ccc(F)cc2)s1	/	-18
Cn1c(-c2ccc3c(c2)OCO3)cnc1NCc1cc(Cl)ccc1O	-4.2	1
Cc1cccc(NC(=O)CSc2c3c(nc4ccccc24)CCCC3)n1	/	9
CN(C(=O)CN1N=C(c2ccc(Cl)cc2)CCC1=O)c1ccccc1	-0.7	0
COc1cc(Cl)c(C)cc1NC(=O)COCc1cc(-c2ccco2)on1	/	9
N#C/C(=C/Nc1ccc2c(c1)OCCO2)C(=O)NCc1ccco1	/	-33
O=C(O)CCC(=O)Nc1cccc(Cl)c1Cl	-1.9	/
O=C(NCCc1ccccc1)c1cnc(N2CCCC2)nc1	/	-6
CCC(=O)Nc1cccc(-c2nnc3c4ccccc4c(C)nn23)c1	-3.8	5
COC(=O)c1ccc(CSc2nncc(=O)n2N)o1	/	3
Clc1nc(NCc2ccccc2)nc(NCc2ccccc2)n1	-0.8	/
CCOc1ccccc1NC(=S)NNc1nc2ccccc2o1	/	3
COc1ccc(-n2ccnc2SCC(=O)NCc2ccccc2)cc1	/	3
O=C(c1ccco1)N1CCN(CCN2CCOCC2)CC1	-0.6	/
CS(=O)c1sc(Br)c2c1C(=O)CC(C)(C)C2 (stereo not drawn)	-1.9	/
CC(=O)Nc1ccc2nc(NC(=O)c3cc(Cl)ccc3Cl)sc2c1	/	15
O=C(CCN1CCOCC1)c1ccc(Br)cc1	-11	5
c1cnc(SCCOc2ccc3c(c2)CCC3)nc1	-0.9	-7
N#CC(C(=O)c1cc2ccccc2o1)c1nc2ccccc2s1 (stereo not drawn)	/	5
CN(C)CCN1CCc2ccccc21	/	11
Remaining list, next part
SMILES	MgrA-DNA mod	Sa helicase inh
O=C(NCCc1ccncc1)c1cc(Br)ccc1O	-1.8	/
CCOC(=O)N1CCN(C(=O)CSc2nc3c([nH]c4ccccc43)c(=O)n2-c2ccccc2)CC1	/	7
CC(C)(C)N=C(NS(=O)(=O)c1cccs1)c1ccccc1	/	-7
O=C(Nc1cccc(-c2nc3ccccc3o2)c1)c1ccccc1	-7.5	-6
CC(C)(C)c1ccc(COC(=O)c2ccc[nH]c2=O)cc1	/	-4
CCSc1sc(C(=O)OC)c2c1/C(=N/O)CC(C)(C)C2	4.4	/
CC(C)NC(=O)CCCn1sc2ccccc2c1=O	/	-16
CS(=O)(=O)c1ccc(NC(=O)CN2CSCC2=O)cc1	/	8
COc1ccccc1N1CCN(C(=O)CCNS(=O)(=O)c2ccc3c(c2)CCC(=O)N3)CC1	1.8	13
Cc1c(CCO)sc[n+]1CC(=O)OC12CC3CC(CC(C3)C1)C2	-1.6	-12
COc1ccc(CNC(=S)N(CC(N)=O)C(C)C)cc1	/	4
O=C(OCCS(=O)(=O)c1ccc(C(F)(F)F)cn1)c1ccc(C(F)(F)F)cc1	-3.8	/
O=C(c1ccccc1)N1CCN(c2ccccc2)CC1	-0.7	-6
COc1ccc(OC)c(S(=O)(=O)NC(=NCC(C)C)SC)c1	1.7	/
Cc1cc(C(F)(F)F)nn1C(=O)c1cccnc1Cl	-2.5	16
C=CCN1C2=NC(=O)CN2c2ccccc21	0.8	-7
Cc1ccc(S(=O)(=O)Nc2cccc(C(=O)NC(C)(C)CO)c2)cc1	/	-12
Nc1nc(CN2CCN(C(=O)c3ccco3)CC2)nc(N2CCCc3ccccc32)n1	6.3	17
CC(C)c1ccc2c(c1)CCC1C(C)(CNC(=O)/C=C/C(=O)O)CCCC21C (stereo not drawn)	3.8	/
Cc1ccc(C)c(S(=O)(=O)N2CCN(CC(=O)Nc3ccc4[nH]c(=O)[nH]c4c3)CC2)c1	/	-5
CCOc1c(NC(=O)c2ccc(N)cc2)cc(NC(=O)c2ccc(N)cc2)cc1C(N)=O	0.9	12
O=C(CC1Sc2ccccc2NC1=O)OCc1cc(=O)oc2cc(O)ccc12 (stereo not drawn)	/	4
Fc1cccc(-c2[nH]ncc2-c2nnnn2-c2ccccc2)c1	/	-21
COc1ccc(Cl)cc1NC(=O)C1CC(=O)n2c(nc3ccccc32)N1 (stereo not drawn)	-1.7	8
O=C(NCc1cccs1)c1cccc(OC(F)F)c1	/	-9
CCOC(=O)CN1C(=O)C2(C(C#N)=C(N)Oc3ccccc32)C2=C1CC(C)(C)CC2=O (stereo not drawn)	-0.7	9
COC(=O)c1ccc(NS(=O)(=O)c2cc(C(=O)OC)n(C)c2)cc1	/	-12
CCOC(=O)c1sc(N)c(C#N)c1COC(=O)[C@@H]1CCCN1C(=O)c1cccs1	/	-78
N#Cc1c(N2C(=O)CC(Sc3ncccc3C(=O)O)C2=O)sc2c1CCCC2 (stereo not drawn)	/	1
Cc1[nH]c(=O)[nH]c(=O)c1S(=O)(=O)N1CCC(C(=O)NCCN2CCN(c3ccccc3)CC2)CC1	/	21
Cc1ccc(S(=O)(=O)n2c(C)cc(C(=O)O)c2C)cc1	-0.4	15
CC1CN(S(=O)(=O)c2ccc(C(=O)O)cc2)CC(C)O1 (stereo not drawn)	8.8	8
CCOC(=O)c1nc2sc3c(c2c(=O)[nH]1)CCCC3	-2.0	/
O=C(Sc1nc2ccccc2o1)N1c2ccccc2Sc2ccccc21	/	1
Cc1oc2c(c1C(=O)NCCC(C)C)C(=O)c1ccccc1C2=O	1.6	-6
COc1ccc(C)cc1NC(=S)NC12CN3CN(CN(C3)C1)C2	0.9	3
COc1cccc(C2C3=C(CC(C)(C)CC3=O)OC3=C2C(=O)CC(C)(C)C3)c1OC	-2.1	-4
Cc1c(Br)sc2sc(-c3nn(C)cc3Br)c(C)c12	-1.1	/
CSc1nnc(CNC(=O)c2ccccc2)n1-c1cccc(C)c1	/	3
O=C1Nc2ccccc2/C1=C/C(=O)c1ccco1	-0.9	13

Reformatted in CSV form: entries from further up
Structure,MgrA-DNA mod,Sa helicase inh
Cc1ccc(C)n1-c1nnc(N2CCC(C(=O)NC3CCCCC3)CC2)s1,/,29
N#CCCNc1nncs1,-2.3,8
O=C(Cc1n[nH]c(=O)c2ccccc12)Nc1ccccc1C(=O)NC1CCCC1,/,7
COc1ccc(CCN2C(=O)CSC2c2ccc([N+](=O)[O-])cc2)cc1OC (stereo not drawn),0.5,/
CCOC(=O)C1=C(N)C(=O)N(CCCN2CCOCC2)C1,-2.2,1
NS(=O)(=O)c1cccc(C(F)(F)F)c1,0.8,/
COC(=O)C1(C)NC(c2ccccc2C)C2C(=O)N(C)C(=O)C21 (stereo not drawn),-0.9,8

Following part:
SMILES	MgrA-DNA mod	Sa helicase inh
O=C(/C=C/c1cc(Cl)c2c(c1)OCO2)N(Cc1ccco1)Cc1cccs1	/	0
COCCNC(=O)Cn1cnc2onc(-c3ccc(F)cc3)c2c1=O	/	21
O=C(Nc1ccc(Cl)cc1C(=O)N1CCOCC1)c1ccco1	2.8	-14
CC1CCCN(CCS(=O)(=O)c2ccccc2)C1 (stereo not drawn)	/	-16
Cn1c(Cc2cccc3ccccc23)nnc1SCc1ccccc1C#N	-0.9	9
Cc1cc(C)c(C(=O)O)c(=S)[nH]1	/	-16
CC(=O)Nc1ccccc1/C=C/Br	-1.4	10
Cc1ccc(S(=O)(=O)N2CCCC(C(=O)NCCc3ccccc3)C2)cc1 (stereo not drawn)	-0.8	-2
O=C(CN1C(=O)S/C(=C\c2ccc(-c3ccc(F)cc3F)o2)C1=O)N1CCOCC1	-0.8	0
O=C(CSc1c[nH]c2ccccc12)NC1CCCCC1	/	-5
COc1ccccc1C1CCN(S(=O)(=O)c2ccc(OC(F)(F)F)cc2)CC1	-1.2	/
CC(NC(=S)Nc1ccc2c(c1)OCO2)C1CCCO1 (stereo not drawn)	1.1	10
CN(C)/C=C/C(=S)c1cccs1	1.2	/
CCOC(=O)c1ccc2nc3c(nc2c1)C(=O)c1ccccc1C3=O	/	1
CCOC(=O)c1sc2nc3n(c(=O)c2c1C)CCC3	/	6
N=c1n(CC(=O)O)c2ccccc2n1Cc1ccccc1	-1.1	4
CN(C1CCN2CCc3ccccc3C2C1)S(C)(=O)=O (stereo not drawn)	-1.5	/
Cc1cc(C)c2c(-n3cccc3)c(C(=O)NC(C)C)sc2n1	/	28
CC(C)Cc1nn(-c2ccccc2)cc1/C=C1\Cc2ccccc2C1=O	0.2	12
Cc1nc(-c2ccc(OCC(=O)O)cc2)cs1	7.7	5
CCc1ccccc1NC(=O)C(C)(C)CC	-3.5	21
Cc1cc(CNCCCN2CCCCC2C)c(C)n1-c1ccnn1C(C)C (stereo not drawn)	/	1
CCc1ccc(N2C(=O)NC(=O)/C(=C\c3ccc(OCC(=O)O)c(OC)c3)C2=O)cc1	3.0	/
Cc1cc(=O)oc2c(C(=O)c3ccccc3)c(OC(=O)C(C)C)ccc12	0.0	4
CN(C(=O)CN1CCN(c2cccc(C(F)(F)F)c2)CC1)C1CCS(=O)(=O)C1 (stereo not drawn)	/	24
CCCCNC(=O)Oc1ccc(-c2csnn2)cc1	/	7
S=C(Nc1ccccc1)c1ccccc1	-1.6	1
Cc1[nH]c2ccccc2c1C(O)c1ccccn1 (stereo not drawn)	/	2
O=C1c2ccccc2C(=O)c2c1ccc(C(=O)Nc1cccc(Br)c1)c2[N+](=O)[O-]	-0.7	/
COc1ccc(OC)c2[nH]c(=O)c(CCNC(C)=O)cc12	/	6
COC(=O)c1ccc(NC(=O)CSC2=NCCS2)cc1	0.1	-2
O=C(Sc1ncccc1C(F)(F)F)c1ccc(Cl)cc1	-2.3	/

Of the compounds above, these contain a nitro group on carbon:
SMILES	MgrA-DNA mod	Sa helicase inh
COc1ccc(CCN2C(=O)CSC2c2ccc([N+](=O)[O-])cc2)cc1OC (stereo not drawn)	0.5	/
O=C1c2ccccc2C(=O)c2c1ccc(C(=O)Nc1cccc(Br)c1)c2[N+](=O)[O-]	-0.7	/

Four structures already listed, ordered by SMILES length, smallest number first:
SMILES	MgrA-DNA mod	Sa helicase inh
C=CCN1C2=NC(=O)CN2c2ccccc21	0.8	-7
COC(=O)c1ccc(CSc2nncc(=O)n2N)o1	/	3
CCOC(=O)c1nc2sc3c(c2c(=O)[nH]1)CCCC3	-2.0	/
COc1ccc(-n2ccnc2SCC(=O)NCc2ccccc2)cc1	/	3

Quoted at random: two compounds from above
SMILES	MgrA-DNA mod	Sa helicase inh
O=C(Sc1ncccc1C(F)(F)F)c1ccc(Cl)cc1	-2.3	/
O=C1c2ccccc2C(=O)c2c1ccc(C(=O)Nc1cccc(Br)c1)c2[N+](=O)[O-]	-0.7	/

An excerpt. The share of hits here may be higher or lower than overall.
